# From PubChem BioAssay
# Biofilm kill mix: mixture kills Candida albicans biofilm cells | C. albicans biofilm persisters + clotrimazole, fluorescence viability; primary screen in compound mixtures of four per well | inhibition, % at 7.6 µM | 120,000 compounds, 0.02% hits;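 active = inhibition above 30.3% in the primary screen of four-compound pools, then above 30% when the compound was retested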;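 note: compounds exposed to preformed 24 h biofilms for 48 h; the number belongs to the whole pool; some results filed as inactive read as strong as hits; inactives centre near 12; 0% = biofilm with clotrimazole alone and 100% = kill control; retested singly at about 60 µM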
#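 Incubation: 24 h biofilm formation, then 48 h compound exposure, 37 °C | Material: C. albicans biofilms | Buffer or medium: RPMI/MOPS medium, pH 7.0 | Measured by: 2-h Alamar Blue fluorescence, 535/590 nm excitation/emission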
# * hit, by the source's call. These rows are one share of the data; count on the stated rates, not on these rows.
SMILES,Biofilm kill mix
CC(C)OCCCN1CN(S(=O)(=O)c2cccs2)c2nc3ccccc3nc21,16
C=CCn1c(SCC(=O)c2ccc(F)cc2)nnc1-c1ccc2c(c1)OCO2,1
CC(C)Cc1nc2c(nnn2Cc2ccccc2F)c(=O)[nH]1,8
Cc1cc(C(=O)CN2C(=O)NC3(CCCCC3C)C2=O)c(C)n1Cc1cccs1 (centres undefined),9
CCc1nnc(N/N=C/c2ccc(N3CCC(C)CC3)c([N+](=O)[O-])c2)n1N,8
CCCNC(=O)COc1cccc(C(=O)NCc2ccccc2)c1,11
COc1ccc(C)cc1NC(=O)c1ccc(-c2ccc(C(C)=O)cc2)o1,19
COCCN=C1OC(=O)N2C(=O)C3=C4[C@@H](C[C@H]5C(=O)N(c6ccccc6)C(=O)[C@H]5[C@H]4[C@@]12Cc1ccccc1)[C@H]1C(=O)N(c2ccccc2)C(=O)[C@H]1[C@H]3C,16
COc1cc(CNc2ccc(N3CCOCC3)cc2)cc(Br)c1OC,16
O=C(CCc1c[nH]c2ccccc12)N1CCN(c2ccc(F)cc2)CC1,15
Cc1ccc(Nc2nnc(SCC(=O)NCCN3C(=O)CSC3=O)s2)cc1C,27
CCOc1ccc(NC(=NCc2ccc3c(c2)OCO3)SC2CC(=O)N(c3ccc(C(=O)O)cc3)C2=O)cc1 (centres undefined),15
COc1ccc(OC)c(C(=O)Cn2c3[n+](c4ccc(C(F)(F)F)cc42)CCCCC3)c1,11
COc1ccc2c(c1OC)C(=O)OC2n1c(O)c(N=NC(C)=O)c2ccccc21 (centres undefined),17
COc1ccc(C(CNC(=O)c2ccc(S(=O)(=O)N3CCCC3)cc2)N(C)C)cc1OC (centres undefined),13
Cc1cccc(OCC(=O)N/N=C/C=C/c2ccco2)c1,19
CC(CN1CCOCC1)OC(=O)/C=C/c1ccccc1 (centres undefined),8
O=C(CNC(c1ccccc1)c1ccccc1)Nc1cc([N+](=O)[O-])ccc1Cl,-3
N=c1oc2ccc3ccccc3c2cc1-c1nc(-c2ccccc2)cs1,4
CC(C)(C)NC(=O)C(=O)N/N=C/c1ccc(F)cc1,-1
Cc1ccc(C(=O)C[n+]2cc(Br)cc(Br)c2)cc1[N+](=O)[O-],20
CCOC(=O)CCCCCN(Cc1ccccc1)S(=O)(=O)c1ccc([N+](=O)[O-])cc1,31
COc1ccc(CCNC(=O)COC(=O)c2ccc(N3CCCC3=O)cc2)cc1OC,11
CC(C)OC(=O)NC(C)(C)COC(=O)Nc1cccc(Cl)c1,11
C#CCOCCOCCOCCNc1nc(N2CCN(C(=O)[C@H](Cc3cc4ccccc4[nH]3)n3cc([C@@H](N)C(C)CC)nn3)CC2)nc(N2CCN(C(=O)[C@H](Cc3cc4ccccc4[nH]3)n3cc([C@@H](N)Cc4ccc(O)cc4)nn3)CC2)n1 (some centres undefined),17
O=C(CN1C(=O)/C(=C\c2ccccc2Cl)Oc2ccccc21)NCc1cccnc1,17
CC(C)n1c(N)c(C#N)c2ccc([N+](=O)[O-])cc2c1=O,27
CCOc1ccc(C(=O)N2CCCC(c3nc(-c4cccs4)no3)C2)cc1 (centres undefined),17
CCOc1ccc(C(=O)Nc2cc(C)ccn2)cc1,12
CCCCOC(=O)/C=C\C(=O)OCCCC,10
CCCCOc1ccc(C(=S)N2CCC(C(N)=O)CC2)cc1,8
O=C1CC(c2ccccc2)CC(=O)N1c1ccccc1,20
CC(=O)c1ccccc1OC(=O)c1ccc([N+](=O)[O-])o1,22
COc1ccc(OCC(O)CN(C)C(=O)/C=C/c2cccc([N+](=O)[O-])c2)cc1 (centres undefined),14
Cc1cc(=O)n(C)c2ccccc12,11
O=C(CCC(=O)Nc1cccc2ccccc12)N/N=C/c1ccco1,10
Cc1ccccc1CSc1ccc2nnc(-c3ccccn3)n2n1,12
CCc1nnc(NS(=O)(=O)c2ccc(NC(=O)c3ccccc3C)cc2)s1,14
CC1=NN(c2ccccc2)C(=O)/C1=C/c1ccc[nH]1,5
Cc1ccc(-c2cn(-c3ccc(SC(F)F)cc3)c3[n+]2CCC3)cc1,21
Cc1ccc(NC(=O)C2=CCN(S(=O)(=O)c3ccc(F)cc3)CC2)cc1,15
O=[N+]([O-])c1cccc(/C=C/c2nc[nH]c2[N+](=O)[O-])c1,14
CSc1ccc(CN(C)CC(=O)Nc2ccc(NC(C)=O)cc2)cc1,18
O=C(CN1CCN(C(=O)c2ccco2)CC1)N1CCc2[nH]c3ccccc3c2C1,7
OCC1(CCc2ccccc2)CCN(Cc2ccccc2Cl)CC1,13
CC(C)CN(C(=O)COC(=O)c1c(Cl)ccc(Cl)c1Cl)C1CCS(=O)(=O)C1 (centres undefined),-5
O=C1c2ccccc2-c2cccc(C(=O)N3CCN(C(=O)c4ccccc4)CC3)c21,15
COc1ccc(N2C(=O)N(Cc3cccc(F)c3)c3ccccc3S2(=O)=O)cc1,6

# No new results follow: entries from further up.
SMILES,Biofilm kill mix
CC(=O)c1ccccc1OC(=O)c1ccc([N+](=O)[O-])o1,22
COc1ccc(OCC(O)CN(C)C(=O)/C=C/c2cccc([N+](=O)[O-])c2)cc1 (centres undefined),14
Cc1cc(=O)n(C)c2ccccc12,11
O=C(CCC(=O)Nc1cccc2ccccc12)N/N=C/c1ccco1,10
Cc1ccccc1CSc1ccc2nnc(-c3ccccn3)n2n1,12
CCc1nnc(NS(=O)(=O)c2ccc(NC(=O)c3ccccc3C)cc2)s1,14
CC1=NN(c2ccccc2)C(=O)/C1=C/c1ccc[nH]1,5
Cc1ccc(-c2cn(-c3ccc(SC(F)F)cc3)c3[n+]2CCC3)cc1,21
Cc1ccc(NC(=O)C2=CCN(S(=O)(=O)c3ccc(F)cc3)CC2)cc1,15
O=[N+]([O-])c1cccc(/C=C/c2nc[nH]c2[N+](=O)[O-])c1,14
CSc1ccc(CN(C)CC(=O)Nc2ccc(NC(C)=O)cc2)cc1,18
O=C(CN1CCN(C(=O)c2ccco2)CC1)N1CCc2[nH]c3ccccc3c2C1,7
OCC1(CCc2ccccc2)CCN(Cc2ccccc2Cl)CC1,13
CC(C)CN(C(=O)COC(=O)c1c(Cl)ccc(Cl)c1Cl)C1CCS(=O)(=O)C1 (centres undefined),-5
O=C1c2ccccc2-c2cccc(C(=O)N3CCN(C(=O)c4ccccc4)CC3)c21,15
COc1ccc(N2C(=O)N(Cc3cccc(F)c3)c3ccccc3S2(=O)=O)cc1,6

# (next part)
SMILES,Biofilm kill mix
CCOc1ccc(-n2c(=O)c3c4c(sc3n(CC(=O)NCC3CCCO3)c2=O)CCCC4)cc1 (centres undefined),10
Nc1nn(-c2cccc(F)n2)cc1-c1ccc(Cl)cc1,10
O=C(Cc1ccccc1)Nc1c(Cl)ccc2nsnc12,-89
CCOC(=O)Cc1csc(NC(NC(=O)OCC)(C(=O)OCC)C(F)(F)F)n1 (centres undefined),23
CC1(C)CC(=O)C=C(NNC(=O)c2ccc(N)cc2)C1,14
Cc1sc(NC(=O)/C=C/C(=O)O)c(C(N)=O)c1-c1ccc(C(C)(C)C)cc1,11
Cc1ccc(NC(=O)CSc2n[nH]c(-c3ccco3)n2)cc1,8
COC(=O)c1ccc(OC(=O)c2ccc(OC)cc2)c(OC)c1,13
O=[N+]([O-])c1ccc(N2CCN(CCO)CC2)cc1Sc1ccccn1,12
CC(C(=O)N1CCCc2ccccc21)N1C(=O)c2ccccc2C1=O (centres undefined),16
C=CCOC(=O)C1=C(C)NC(C)=C(C(=O)OCC=C)C1c1cn(-c2ccccc2)nc1-c1ccco1,12
Cc1c(Cl)ccc2sc(NC(=O)CN3C(=O)c4ccccc4C3=O)nc12,-2
O=C(COC(=O)c1cc(=O)[nH]c2ccc(Br)cc12)c1ccccc1,-14
O=C(Cn1nc(-c2ccccc2Cl)ccc1=O)Nc1ccccc1-c1ccccc1,17
Cc1nc2ccc(NC(=O)c3ccc(S(=O)(=O)N(C)C)cc3)cc2s1,15
Cc1ccc(/C=C/C(=O)NC(C)c2ccccc2)cc1 (centres undefined),4
CNC(=O)C(=O)N/N=C/c1ccccn1,15
CCOc1ccccc1C(C(=O)NCCOC)N(CCOC)C(=O)Cn1nnc2ccccc21 (centres undefined),7
C/C(=N/N=C(/N)SCc1ccccc1)C(C)(C)C,8
CC1CCc2c(sc(NC(=O)CSc3nnc(-c4ccccc4)o3)c2C#N)C1 (centres undefined),2
O=C(c1cc2cc(Br)ccc2o1)N1CCOCC1,12
Cc1ccc(C(=O)CN(C(=O)c2ccc(Cl)cc2)N2C(=O)CCC2=O)cc1,-1
COc1ccc(C(=O)OCC(=O)N2CCCCC2)cc1[N+](=O)[O-],17
CCn1ncc(NC(=S)NCCc2ccc(OC)c(OC)c2)c1C(N)=O,15
Cn1cc(Br)c(C(=O)NN2C(=O)C3C4C=CC(C5CC45)C3C2=O)n1 (centres undefined),-1
Cc1ccc(N(CC(=O)NCCSc2nc3ccccc3s2)S(=O)(=O)c2ccccc2)c(C)c1,5
CCc1ccc(NC(=O)c2cnn(-c3ccccc3)c2C2CCNCC2)cc1,22
Cc1cccc(NC(=O)CCNS(=O)(=O)c2cccc3nonc23)c1,12
COc1ccc(NC(=S)NC(C)c2ccncc2)cc1OC (centres undefined),-5
CC(C(=O)NCc1ccc(F)cc1)c1ccc([N+](=O)[O-])cc1 (centres undefined),0
C/C(N)=C(/C#N)C(=O)CSc1nc2ccccc2c(=O)n1-c1ccccc1C,10
CC(C)(C)n1nnnc1C(c1cccnc1)N1CCN(c2ccccc2F)CC1 (centres undefined),19
CNC(=O)CSc1n[nH]c(-c2cc(Cl)ccc2OC)n1,3
COc1cc(Br)cc(/C=N/NC(=O)Cc2ccc(C(F)(F)F)cc2[N+](=O)[O-])c1O,11
CCOCCCNC(=O)CSCc1nc(-c2ccc(SC)cc2)oc1C,10
Cc1noc(C)c1COC(=O)/C=C/c1ccc(Cl)cc1,1
Cc1cccc(Cl)c1NC(=S)NN,-3
CC1CCN(c2nc(N3CCCCC3)nc(N3CCCCC3)n2)CC1,11
O=C(COc1ccccc1Cl)Nc1cccnc1,9
CCOC(=O)c1cnc(-n2nc(C)cc2C)nc1NNc1cc(C)nc(-c2ccccc2)n1,6
COc1ccccc1/C=C/C(=O)OCC(=O)Nc1ccc(Cl)cn1,15
O=C(COC(=O)CC1c2ccccc2CCN1S(=O)(=O)c1ccccc1)Nc1ccccc1 (centres undefined),1
NS(=O)(=O)c1cccc(NC(=O)c2cc(-c3cccs3)nc3ccccc23)c1,24
S=C(NC1CC1)N1CCN(c2ccc(Cl)cc2)CC1,10
CCCCOC(=O)c1ccc(NC(=O)C(=O)NCCN(CC)CC)cc1,32
CS(=O)(=O)N1CCC(C(=O)N2CCN(c3ccccc3F)CC2)CC1,24
CCOC(=O)C(C)Sc1nc(=O)n2ccccc2n1 (centres undefined),16
CNS(=O)(=O)c1cccc(C(=O)OCc2cc(=O)n3cc(Br)ccc3n2)c1,16
COc1ccccc1NC(=O)c1cc2ccccc2nc1C,11
COc1cc(C(=O)N/N=C/c2ccccn2)cc(OC)c1OC,1
O=C(CCN1C(=O)C2CCCCC2C1=O)Nc1nc(-c2ccccc2)cs1 (centres undefined),12
O=C(N/N=C\c1ccc(Br)cc1)c1ccc(Cn2cccn2)o1,6
Cc1ccc(S(=O)(=O)C(c2ccccc2)c2c(C)noc2C)cc1 (centres undefined),16
COc1cccc(C(=O)Nc2ccc3c(c2)C(=O)c2ccccc2C3=O)c1,17
Cc1ccc[n+](-c2[nH]c(=O)sc2/C=N/NC(=O)c2ccccc2[O-])c1,12
CCCCNC(=O)N1CCN(c2ccccc2OCC)CC1,24
COc1cc2nc(SCC(=O)NCc3ccco3)n(Cc3ccc(Cl)cc3)c(=O)c2cc1OC,14
COCCN=c1scc(-c2ccc3c(c2)NC(=O)CO3)n1/N=C(\C)c1ccc(O)cc1,29
CCOC(=O)CCSc1nc(C(C)(C)C)cc(C(F)(F)F)c1C#N,11
O=C(CN=C1NC(=O)C(c2ccccc2)(c2ccccc2)N1)NCc1ccc(F)cc1,17

# (cont.)
SMILES,Biofilm kill mix
O=C(/C=C/c1c(Cl)nc2ccccn12)N1CCN(c2ccccc2F)CC1,13
CC(=O)N(C)c1ccc(NC(=S)Nc2cccc3ccccc23)cc1,23
COc1ccc(-n2cc(CNC3CCN(C)CC3)c(-c3cccc(F)c3)n2)cc1,3
O=C(Nc1ccn([C@H]2CC[C@@H](CO)O2)c(=O)n1)c1ccccc1,10
Fc1ccccc1OCCSc1ncnc2nc[nH]c12,8
CC(=O)/C(N=Nc1ccc2c(c1)OCO2)=C(\C)O,12
Cc1c(Cl)cc(-n2cnnn2)cc1[N+](=O)[O-],1
CCOC(=O)CCCN1CC(O)=C(c2nc3ccccc3s2)C1=N,4
C#CCSc1n[nH]c(=O)n1-c1cccc(C(F)(F)F)c1,17
CC(=O)N/C(=C/c1ccc2c(c1)OCO2)C(=O)NCCO,13
CCCn1c(/C=N/Nc2nc3ccccc3[nH]2)nc2ccccc21,12
COc1ccc(C2c3sc(=O)[nH]c3SC3C4CCC(C4)C23)cc1OC (centres undefined),9
CCn1nc(C)c(CNC(=O)CC2C(=O)NCCN2CC(C)C)c1C (centres undefined),9
COC(=O)CSCC(=O)Nc1nnc(-c2ccccc2C)s1,24
CCN1C(=O)CS/C1=N\S(=O)(=O)c1ccc(Cl)cc1,32
Cc1c(/C=N/Nc2ccc(C(=O)O)cc2)c2ccccc2n1C,16
S=c1[nH]nc(-c2cccs2)n1Cc1ccccc1,4
CCCCNc1c(N)n(CCCC)c(=O)[nH]c1=O,4
Cc1cc(=O)[nH]c(N/N=C/c2ccc3c(c2)OCCO3)n1,10
O=C(COC(=O)c1ccccn1)Nc1cccc2ccccc12,-3
O=C(Nc1cccc(N=Cc2cc(Cl)cc(Br)c2O)c1)c1ccco1,8
COc1ccc(C(=O)Nc2ccc([N+](=O)[O-])cn2)cc1OC,7
O=C(COC(=O)CCC(NC(=O)OCc1ccccc1)C(=O)OCC(=O)Nc1ccccc1)Nc1ccccc1 (centres undefined),8
O=C(O)c1ccc(CNC(=S)Nc2ccccc2)cc1,16
